BasE inh – BasE siderophore enzyme inhibitors, primary screen, biochemical, Acinetobacter baumannii ATCC 17978, fluorescence polarization. purified BasE, fluorescence polarization binding displacement. inhibition, % (no concentration beside the values). 0.1% of 84,000 active. AID 485350, 2010;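 active means both replicates above 25% with normal brightness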;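 further: 0% = negative plate control signal and 100% = positive plate control signal; stock transfer was 100 nL into about 30 µL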
LANA-nucl inh – inhibitors of KSHV LANA-nucleosome binding, primary screen, biochemical, fluorescence polarization, FITC-LANA1-23, chicken nucleosomes; z-score (concentration not given with the values); FITC-LANA1-23 / chicken nucleosome fluorescence polarization; stronger effect = lower value; 0.3% of 51,000 active;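 active means both repeat wells score below -2 in polarization z-score versus plate sample wells, excluding overly bright wells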;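 further: 100 nL library stock added to about 30 µL; numbers are from one replicate; some results filed as inactive read as strong as hits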
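Test system: purified chicken nucleosomes with FITC-labelled LANA N-terminal peptide (1-23); Input: 240 nM purified chicken nucleosomes (480 nM peptide binding sites), final; Medium: TEN-BT buffer, pH 7.5; Timing: 10–45 min, room temperature; Technique: fluorescence polarization, 480 nm excitation, 535 nm parallel and perpendicular emission; Replication: duplicates.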
* marks the source's active call; other numbers are inactive results; · = no result given; & = joins results of further samples. Not all compounds are listed; the hit share may differ from the screen's.

Molecule	BasE inh	LANA-nucl inh
Cc1ccc(S(=O)(=O)CCc2nc(S(=O)(=O)c3ccc(C)cc3)c(N(C)C)o2)cc1	1.3	-0.46
CNC(=S)NC1CCS(=O)(=O)C1 (stereo not given)	1.2	·
Cc1noc(C)c1S(=O)(=O)N1CCCN(C/C(O)=C(\C#N)c2nc3ccccc3[nH]2)CC1	-1.2	·
Cc1n[nH]c(C)c1Cc1c(F)cccc1Cl	2.2	·
CC(CC(=O)Nc1ccc(Cl)cc1)NCc1nnc2ccccn12 (stereo not given)	1.0	·
Cc1ccc(C)c(COc2ccc(C)nc2NC(=S)NCc2ccccc2)c1	-2.8	·
CC(C)CNC(=O)c1ccc2c(c1)[nH]c(=O)n2C(C)C	-1.4	0.228
Cc1cc(C)[n+]2oc(C)cc2n1	-0.3	1.53
CCCCC1CCC(C(=O)Nc2nonc2C)CC1 (stereo not given)	0.0	0.333
CC(=O)N1CCN(C(=O)CSc2nc(-c3ccccc3)c(-c3ccccc3)[nH]2)CC1	-0.8	·
O=S(=O)(c1cccc(C(F)(F)F)c1)N1CCC(N2CCCCC2)CC1	0.7	-1.63
CC(C)CCCC(C)N (stereo not given)	·	0.499
O=C(O)c1cccc(Oc2ncccn2)c1	0.4	-0.565
O=C(Nc1ccc2c(c1)OCCCO2)c1cn(-c2ccccc2)nc1-c1cccs1	-1.2	·
CC1C=CC(C)C(C(=O)O)C1C(=O)O (stereo not given)	2.5	·
COc1cc2c(cc1OC)CN(C(=S)NCCCN1CCOCC1)CC2	-1.4	·

Structures from the list above that contain sulfur (eight):
Molecule	BasE inh	LANA-nucl inh
Cc1ccc(S(=O)(=O)CCc2nc(S(=O)(=O)c3ccc(C)cc3)c(N(C)C)o2)cc1	1.3	-0.46
CNC(=S)NC1CCS(=O)(=O)C1 (stereo not given)	1.2	·
Cc1noc(C)c1S(=O)(=O)N1CCCN(C/C(O)=C(\C#N)c2nc3ccccc3[nH]2)CC1	-1.2	·
Cc1ccc(C)c(COc2ccc(C)nc2NC(=S)NCc2ccccc2)c1	-2.8	·
CC(=O)N1CCN(C(=O)CSc2nc(-c3ccccc3)c(-c3ccccc3)[nH]2)CC1	-0.8	·
O=S(=O)(c1cccc(C(F)(F)F)c1)N1CCC(N2CCCCC2)CC1	0.7	-1.63
O=C(Nc1ccc2c(c1)OCCCO2)c1cn(-c2ccccc2)nc1-c1cccs1	-1.2	·
COc1cc2c(cc1OC)CN(C(=S)NCCCN1CCOCC1)CC2	-1.4	·

Additional results:
Molecule	BasE inh	LANA-nucl inh
O=C(NCCN1CCN(c2nccc(C(F)(F)F)n2)CC1)c1ccc(Cl)cc1	0.1	·
COc1cc(S(=O)(=O)N2CCCCC2)ccc1N=Cc1c(C)[nH]n(-c2ccccc2)c1=O	0.6	-0.384
N=c1c2c(-c3ccccc3)c(-c3ccccc3)oc2ncn1CCN1CCOCC1	3.6	-1.53
CCc1ccc(N(C(C)=O)c2nc(CSc3nnc4n3CCCCC4)cs2)cc1	0.6	·
O=C(O)CSCC(=O)Nc1ccccn1	1.6	0.305
CC1=[N+]([O-])C(C)(C)C(c2ccc(C)o2)=[N+]1[O-]	0.7	·
CN(C)CCCn1c(N)c2c3c(sc2nc1=O)COC(C)(C)C3	1.1	-0.972
N#CNC(=Nc1cccc(Cl)c1)Oc1ccccc1	·	-0.671
CCCn1cnc2sc(C(=O)O)c(C)c2c1=O	2.2	0.381
CC(=O)N1C(=S)NC(=O)C1c1ccccc1 (stereo not given)	4.9	·
NC(=O)c1ccccc1OCc1cn2cc(Cl)ccc2n1	0.5	·
CSc1nsc(SCC#N)n1	1.6	-0.653
Cc1ccsc1C(=O)Oc1cccc(F)c1	-0.3	·
CC(C)n1c(SCC(=O)Nc2ccccc2Cl)nc2cc(Cl)ccc21	2.6	·
O=C(O)C1CSC2c3ccccc3C(=O)N12 (stereo not given)	2.5	0.202
CCOC(=O)c1c(NC(=O)Cn2nnc3ccccc32)sc2c1CCC(C)C2 (stereo not given)	2.5	-0.95
COc1ccccc1OC(=O)C1CC(=O)N(c2ccc(Cl)cc2)C1 (stereo not given)	1.4	0.468
COC(=O)c1cccc(NC(=O)COC(=O)c2ccco2)c1	-3.8	1.55
Cc1ccc(NC(=O)CSc2n[nH]c(=O)n2CC2CCCO2)cc1C (stereo not given)	-3.6	·
COc1ccc(CN2C(=O)Cc3c2nc(N)c2c(N)nc(N4CCOCC4)c(C#N)c32)cc1	1.4	·
O=c1/c(=C\c2cccs2)sc2nc3ccccc3n12	3.4	-0.059
O=C(/C=C/c1ccccc1)NC(=O)c1ccccc1O	3.4	·
C=CCNc1oc(-c2ccccc2)nc1C#N	2.8	·
CC(c1ccccc1)n1c(CCCNC=O)nc2ccccc21 (stereo not given)	5.5	-1.57
CC(=O)Oc1ccccc1C(=O)N1C(C)CCCC1C (stereo not given)	-1.6	0.741
CCCOc1ccc(C(=O)Nc2ccc(NC(=O)c3cccs3)cc2)cc1	4.5	·
CC1CCCCN1S(=O)(=O)c1ccc(NC(=O)CSc2nc3ccccc3o2)cc1 (stereo not given)	-2.5	1.17
CCOC(=O)c1c(C)[nH]c(C)c1C(=O)CSC1=Nc2ccccc2C2CC=NN12 (stereo not given)	-2.2	·
CCOC(=O)c1cc(-c2ccccc2)n(CCNC(=O)OC(C)(C)C)c1C	1.3	·
COc1ccc(OCC(=O)Nc2ccc(N3CCN(S(C)(=O)=O)CC3)cc2)cc1	-1.4	0.208
O=C(NC1CCCC1)C(c1ccccc1)N(Cc1ccccc1F)C(=O)c1ccco1 (stereo not given)	-4.7	1.85
CC(OC(=O)Cc1coc2cc3c(cc12)CCC3)C(=O)NCc1ccc2c(c1)OCO2 (stereo not given)	5.1	·
CCCc1cc(=O)[nH]c(SC/C(O)=C(\C#N)c2nc3ccccc3[nH]2)n1	-2.5	·
CC(C)(C)NCC(O)COc1cccc2c1CCCC2=O (stereo not given)	·	0.194
C=CCNC(=S)N1CCc2sccc2C1c1ccc(OC)cc1 (stereo not given)	0.3	·
COC(=O)NC(c1ccccc1)c1ccccc1	1.6	0.382
FC(F)(F)c1ccccc1/C=N/n1cn[nH]c1=S	1.8	·
O=C(NCCO)c1sc2cc(F)ccc2c1Cl	1.9	·
COc1ccc(Cl)cc1NC(=O)CN(C)c1nnnn1-c1ccccc1	-0.7	·
Cc1onc(-c2ccccc2)c1CNS(=O)(=O)c1ccccc1	-0.3	0.676
O=C(Nc1ccc(C(=O)O)c(O)c1)c1cccs1	-1.7	-0.362
Cc1csc(SCC(=O)NC(=O)C2CCCCC2)n1	1.3	·
c1ccc(C2CCCC(c3ccccc3)S2)cc1 (stereo not given)	1.2	·
Cc1nnc(SCc2nc(-c3ccsc3)no2)n1C1CC1	0.2	·
Cc1nnc(C)n1/N=C/c1ccc(N(C)CCO)cc1	2.2	·
CNS(=O)(=O)c1cccc(C(=O)OCc2cc(=O)oc3c(C)c(O)ccc23)c1	-3.4	·
Cn1c(SCCCn2c(=O)[nH]c3ccccc32)nnc1C1COc2ccccc2O1 (stereo not given)	0.2	·
Cc1ccc(S(=O)(=O)N2CCN(C(=O)c3ccccc3)C2c2ccccc2)cc1 (stereo not given)	-0.1	·
Cc1cc(C)cc(OCCSc2nccn2C)c1	-0.9	·
O=C(OCc1cccc(Br)c1)C1=COCCO1	2.6	·
O=C(CN1C(=O)c2cccnc2Oc2ccccc21)NCCc1ccccc1	-1.1	1.16
N#CC1(NC(=O)CN2CCN(c3ccc(C(F)(F)F)cn3)CC2)CCCC1	-2.2	·
CC(C)[C@H](NC(=O)c1ccco1)C(=O)Nc1ccc(OC(F)F)cc1	2.0	·
Cc1cccc(NC(=S)Nc2ccccn2)c1	-3.1	·
OC(CNCCc1ccccc1)c1ccccc1 (stereo not given)	·	-1.01
CCOc1ccc(NC(=S)NC(Cc2ccccc2)c2ccccc2)cc1 (stereo not given)	-0.7	·

Continuation:
Molecule	BasE inh	LANA-nucl inh
Cc1cccc(C)c1Nc1scc(C)[n+]1C	1.7	·
CS(=O)(=O)c1ccc(NC(=O)c2ccc3c(c2)OCO3)cc1	1.1	·
COc1cccc(NC(=O)c2ccc3nsnc3c2)c1	1.7	-0.263
CCS(=O)(=O)c1ccc2oc(SCC(=O)Nc3ccc4c(c3)OCCO4)nc2c1	-4.6	·
O=c1c2ccccc2nc(-c2ccccc2)n1CCCn1ccnc1	-5.4	1.82
C=CCn1c(CSCc2ccc(F)cc2)n[nH]c1=S	6.4	-0.196
N#Cc1ccccc1OCc1csc(-c2cccs2)n1	-6.1	·
Cn1ccnc1C(O)c1ccc(N)cc1 (stereo not given)	-0.2	-0.144
Cc1ccc2c(c1)CCCN2C(=O)Cc1c(C)noc1C	-2.1	·
Cc1cc(=O)oc2cc(OCc3cccc(F)c3)ccc12	-1.6	·
CCN(c1cccc(C)c1)C1C(=O)c2ccccc2N1C(C)=O (stereo not given)	0.7	·
c1ccc(Nc2nncs2)cc1	4.3	·
O=C(CN1C=NS(=O)(=O)c2ccccc21)NCCc1ccccc1	0.3	-0.0085
O=C(Nc1c2c(nn1-c1ccccc1)CSC2)c1ccc(Cl)cc1	-0.8	-0.21
COc1ccccc1-c1nnc(SCC(=O)OC(C)C)n1-c1ccccc1	-0.8	-0.164
O=C(O)CC1c2ccccc2Oc2ccccc21	1.6	0.192
O=C(/C=C/c1ccc(S(=O)(=O)N2CCOCC2)cc1)Nc1nccs1	2.1	·
Cc1ccc2[nH]c3c(c2c1)CCc1cn[nH]c1-3	0.7	0.701
Cc1ccccc1-n1cnnc1SCc1nnc(-c2ccccc2Br)o1	-5.5	·
Cc1cccc(CCNC(=O)C2CCN(S(=O)(=O)c3ccc(-n4cnnn4)cc3)CC2)c1	0.8	-1.86
Cc1onc(-c2ccc(Cl)cc2)c1-c1ccnc(SCC(=O)c2ccccc2)n1	-0.6	0.616
OCC1=CC[N+]2(Cc3ccccc3)CCC(O)C12 (stereo not given)	-0.4	-1.68
CCn1cc(C(=O)NCC23CC4CC(CC(C4)C2)C3)c(=O)c2ccc(C)nc21	3.7	·
CCS(=O)(=O)c1nc2ccccc2n1Cc1ccccn1	1.3	-0.422
CCCNC(=O)C1CN(CC(=O)NC2CCCCC2)c2ccccc2O1 (stereo not given)	1.3	·
O=C(O)CCC(=O)N1N=C(c2cccs2)CC1c1ccccc1O (stereo not given)	0.9	-0.72
CCn1c(Cc2nnc(SCC(=O)c3ccc(F)cc3)n2CC)nnc1SCC(=O)c1ccc(F)cc1	0.5	0.0335
COc1cc(NC(=O)CNCc2ccc(Cl)cc2)ccc1-n1cnnn1	-3.1	-0.161
Cc1cc(C(=O)Nc2cc(C)n(Cc3ccc(Cl)cc3)n2)on1	-2.4	-0.111
CN1CCC(N(C)C(=O)c2nn(Cc3ccccc3)c(=O)c3ccccc23)CC1	0.7	·
CCCCNC(=O)Cn1c(=O)n(C)c2ccccc21	3.5	0.425
O=C(Nc1nccs1)c1cc2c(=O)n3ccccc3nc2s1	8.9	·
Cc1cc2cc3c(C)cc(=O)oc3c(C)c2o1	-0.9&-0.7	1.29&-0.748&-0.324
CCCn1c2ccccc2c2cnn(CC(=O)NCCN(C)C3CCCCC3)c(=O)c21	-6.2	1.17
OCCN(CCO)Cc1ccccc1	1.2	-1.26
CCn1c(SCC(=O)/C(C#N)=C2\Sc3ccccc3N2C)nc2ccccc21	-4.0	·
CCCNC(=O)OCC12CC3CC(CC(C3)C1)C2	1.8	0.69
O=C(CCCN1C(=O)CCC1=O)Nc1cccc2c1CCCC2	-0.2	-0.341
c1csc(-c2nn[nH]n2)c1	1.9	·
O=C(CCc1nnc2ccc(NCc3ccccc3)nn12)NC1CCCC1	-0.9	-1.52
Cn1cnnc1SC1CCCCC1NS(=O)(=O)c1ccc(Cl)cc1 (stereo not given)	3.6	-0.365
CCOC(=O)C(C#N)c1nc2ccccc2nc1N(CC)CC (stereo not given)	10.0	·
CCN1CCCC1CNC(C)C(=O)Nc1ccc(Oc2ccccc2)cc1 (stereo not given)	2.5	·
CC(=O)Nc1no[n+]([O-])c1C(N)=O	3.1	-0.342
OCCNc1nc2nonc2nc1NCCO	1.2	-0.582
O=C1/C(=C/c2ccccc2)COc2ccccc21	·	-0.22
CC(C)(C)N/N=C/c1cccc(OC(F)F)c1	2.3	·
Cc1noc(C)c1CSc1nc2ccccc2c(=O)n1Cc1ccccc1Cl	1.1	·
CNC(=O)Cc1ccc(NC(=O)N2CCCCc3ccccc32)cc1	3.8	-0.628
CCCN(Cc1cccs1)C(=O)Nc1ccc(Cl)cc1	-0.1	-0.724
CC(NC(=O)Nc1cccc(C(F)(F)F)c1)c1nc2ccccc2[nH]1 (stereo not given)	-1.2	·
CC1(C)CC(=O)C2=C(C1)Nc1ccc3ccccc3c1C2c1ccco1 (stereo not given)	1.5	-1.05
CC(Sc1nnc2c(n1)[nH]c1ccccc12)C(=O)NC1CC1 (stereo not given)	2.0	0.186
